# RanGTP-Impb inh = inhibitors of RanGTP-importin-beta interaction, primary screen, biochemical, FRET, CFP-Ran, YFP-importin-beta, homogeneous; cell-free CFP-Ran/YFP-importin-beta FRET ratio; inhibition, % (test concentration not listed); 300,000 compounds, 1.1% hits; AID 2216;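 active = most replicates above 15%; inconclusive = exactly half above 15%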;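 note: 0% = DMSO wells and 100% = Ran loaded with GDP instead of GTP; wells of about 40 µL received 100 nL stock; the first replicate is given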
# AF4-AF9 inh = MLL-AF4/AF9 protein interaction inhibition; 350,000 compounds, 0.47% hits; P42568; AlphaScreen, biotin-AF4 peptide binding to FLAG-AF9; inhibition, % at 10 µM; AID 651704;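 active = every replicate reaching a set inhibition limit, whatever the replicate mean, cut at about 25% in these data; inconclusive = mean inhibition reaches that limit but some replicates miss it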;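 note: 0% = plate neutral control median and 100% = total signal loss; the record names both 10 and 1 µM as test concentration; the first replicate is given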
# FGF22 binding = FGF22 (human) thermal shift binding; Q9HCT0; 340,000 compounds, 1.5% hits; calls only at 9.99 µM; AID 651658; recombinant FGF22 thermal shift, SYPRO orange fluorescence; percent of sucrose octasulfate shift, DMSO zero;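 active = melting point raised past a set limit in the mean and every replicate; inconclusive = no clear call; three in four hits are not shown here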
# Target sequence (Q9HCT0 whole entry, looked up): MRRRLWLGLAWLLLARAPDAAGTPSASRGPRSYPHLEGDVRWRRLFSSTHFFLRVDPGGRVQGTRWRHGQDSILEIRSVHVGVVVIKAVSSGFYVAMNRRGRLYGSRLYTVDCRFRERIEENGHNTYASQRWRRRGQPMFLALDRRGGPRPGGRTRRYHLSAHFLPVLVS
# HNF4A DNA FP = change in binding of human HNF4 alpha to DNA; HNF4a-FITC DNA binding, fluorescence polarization, 1 h; activity change, % at 10 µM; 360,000 compounds, 0.3% hits; in the data active = activity change above about 30%, passing the limit was not always enough;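 note: controls were the assay level and a saturating level of protein; the project sought stronger binding though the title names inhibitors; some compounds called inactive have numbers as strong as hits; positive values seem to mean higher polarization but the record does not say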
# Target sequence (P41235 whole entry, looked up): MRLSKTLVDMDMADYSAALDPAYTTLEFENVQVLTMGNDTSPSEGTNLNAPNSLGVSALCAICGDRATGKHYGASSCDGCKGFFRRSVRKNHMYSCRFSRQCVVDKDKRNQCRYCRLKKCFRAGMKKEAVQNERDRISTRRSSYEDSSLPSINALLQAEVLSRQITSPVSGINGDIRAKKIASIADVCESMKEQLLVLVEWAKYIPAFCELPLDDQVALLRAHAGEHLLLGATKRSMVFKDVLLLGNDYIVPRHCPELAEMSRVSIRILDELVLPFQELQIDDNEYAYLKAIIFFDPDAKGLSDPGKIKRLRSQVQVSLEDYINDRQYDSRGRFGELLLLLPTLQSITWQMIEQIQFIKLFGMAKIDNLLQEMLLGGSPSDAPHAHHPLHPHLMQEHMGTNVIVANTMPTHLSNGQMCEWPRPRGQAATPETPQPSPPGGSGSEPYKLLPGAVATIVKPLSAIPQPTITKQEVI
# E coli growth = E. coli growth inhibition | Escherichia coli growth, OD600, 23 h; active compounds read low | OD600 absorbance (no concentration beside the values) | 330,000 compounds, 0.21% hits;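 active = OD600 absorbance below the run mean of sample wells minus 3.6 SD, in any replicate, cut at about 0.56 in these data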;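 note: stock transfer was 300 nL into about 60 µL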
# Vif TR-FRET = inhibitors of Vif binding to APOBEC3G peptide, primary screen, biochemical, TR-FRET, GST-Vif 1-94, biotin-A3G peptide, dose response retest (AID 1117319) | TR-FRET GST-Vif / biotin-A3G peptide binding; higher % means a stronger effect; test concentration not given here; strong numbers were not always called active | inhibition, %; hits with a dose series show IC50 in µM | 260,000 compounds, 0.57% hits;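 active = above the screen mean plus three standard deviations and confirmed in dose response; inconclusive = results disagree or hit not tested in dose response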;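 note: Vif residues 1-94 fused to GST binding biotinylated APOBEC3G peptide 110-148; 0% = full assay without inhibitor and 100% = GST in place of GST-Vif; retest series ran down from 100 µM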
# UCH37 inh = blocks the human deubiquitinase UCH37. 330,000 compounds, 0.33% hits. inhibition, % (test concentration not listed). Q9Y5K5. purified proteasome/UCH37, Ub-AMC cleavage fluorescence;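 active = mean of two replicates above 20%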;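 note: 0% = compound-free wells with enzyme and 100% = wells lacking proteasome; stock transfer was 100 nL into about 20 µL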
# Target sequence (Q9Y5K5 whole entry, looked up): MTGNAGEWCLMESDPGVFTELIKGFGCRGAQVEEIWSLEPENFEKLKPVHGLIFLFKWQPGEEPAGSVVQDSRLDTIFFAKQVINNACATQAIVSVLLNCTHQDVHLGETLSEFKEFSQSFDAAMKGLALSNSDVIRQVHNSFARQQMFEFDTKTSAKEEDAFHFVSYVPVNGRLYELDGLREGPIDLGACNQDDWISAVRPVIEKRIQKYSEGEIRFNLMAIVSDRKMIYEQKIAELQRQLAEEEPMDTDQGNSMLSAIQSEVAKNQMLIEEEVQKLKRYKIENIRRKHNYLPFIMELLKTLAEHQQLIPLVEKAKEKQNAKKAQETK
#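 Reagent: Ub-AMC substrate; assay system: Proteasome-associated human UCH37 deubiquitinase; controls: no-proteasome and no-compound wells; read-out: % inhibition of Ub-AMC cleavage fluorescence; timing: 30 min preincubation with enzyme, 25 min cleavage at room temperature; signal: AMC fluorescence from Ub-AMC cleavage, excitation 355 nm, emission 460 nm; buffer or medium: Tris-HCl pH 7.4 plus ovalbumin, ATP-MgCl2, DTT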
# * marks the source's active call; other numbers are inactive results; i = inactive; ? = inconclusive; . = not tested or not shown. This is a subset; count on the stated rates, not on these rows.
# Results follow in this order: AF4-AF9 inh	E coli growth	UCH37 inh	HNF4A DNA FP	Vif TR-FRET	RanGTP-Impb inh	FGF22 binding
- O=C(Nc1cccnc1)c1cc(-c2ccc(Cl)cc2Cl)on1
  -4.2	0.71	3.0	2.1	.	2.3	i
- O=C(CN1C(=O)COc2ccccc21)N1CCc2ccccc21
  .	0.69	5.8	-1.0	-3%	5.2	.
- Cc1ccc(S(=O)(=O)N2CCN(C(=O)Cc3ccc4c(c3)OCCO4)CC2)cc1C
  .	0.67	-1.4	0.7	16%	-1.7	.
- CC(C)CCNC(=O)Cn1cc2c(n1)CCCCC2
  -0.8	0.69	3.3	1.6	0%	1.0	i
- O=C(CSc1nc2ccccc2n1CCc1ccccc1)NC1CC1
  0.0	0.7	4.3	-0.2	16%	5.5	i
- Cc1ccc(N(C(C)C(=O)O)S(=O)(=O)c2c(C)n[nH]c2C)cc1 (stereo unspecified)
  .	0.81	3.2	-1.0	10%	?	.
- CCCCNC(=O)C1(C)CCC(=O)N1CCOC (stereo unspecified)
  -1.2	.	.	-3.5	.	.	i
- O=C(CCNC(=O)c1ccccc1Cl)Nc1cccc(S(=O)(=O)N2CCCC2)c1
  -0.5	0.68	0.4	0.3	-8%	.	i
- Cc1c(C)c2ccc(OCC(=O)N3CC[C@@]4(O)CCCC[C@H]4C3)cc2oc1=O
  -1.3	0.72	-145	3.8	.	-1.6	i
- CCC(C)c1ccc(NC(=S)N2CCN(c3ccccn3)CC2)cc1 (stereo unspecified)
  2.0	0.73	-1.7	0.3	.	3.5	i
- NS(=O)(=O)c1cccc(NC(=O)COC(=O)CN2C(=O)C3CC=CCC3C2=O)c1 (stereo unspecified)
  -6.0	0.72	3.8	1.9	31%	-1.4	i
- CCN(CC)/C(=N\S(=O)(=O)c1ccc(F)cc1)c1ccccc1
  -5.0	.	.	-2.8	3%	-5.5	i
- COc1ccc2c(CC(=O)NNC(=O)c3ccccc3F)coc2c1
  -3.4	0.66	0.6	1.6	5%	.	i
- COc1ccc(N2CCN(Cc3nc(N)nc(Nc4ccccc4OC)n3)CC2)cc1
  .	0.7	3.0	-1.7	2%	-1.2	.
- CCCCn1c(=O)[nH]c(=O)c2c1nc(-c1cc(Br)c(OCC)c(OC)c1)n2C
  2.2	0.7	-294	1.8	.	?	i
- Cn1ccnc1SCC(=O)c1cccc(Br)c1
  .	0.62	1.8	2.5	7%	0.5	.
- COc1ccc(-n2nc(C(=O)N(C)C)nc2-c2ccccc2)cc1
  1.4	0.7	-0.6	2.1	-1%	-0.4	i
- COc1ccc(C=CC(=O)C=CC=Cc2ccccc2)cc1
  1.2	0.67	12	3.1	1%	.	i
- CC1(C)C(=O)OC(C(=O)c2ccc(Cl)cc2)C(C)(C)C1=O (stereo unspecified)
  -3.3	0.68	0.8	-2.5	-4%	-0.7	.
- CCOc1ccccc1NC(=O)CSc1nc(=O)n(Cc2ccccn2)c2c1CCC2
  -0.4	0.67	7.5	3.0	4%	-1.7	i
- Cc1cc(C)n2nc(SCC(=O)NC(=O)c3ccccc3)nc2n1
  -18	0.66	-3.9	3.7	4%	.	i
- O=C(NCC1CCCO1)C1CCN(C(=O)c2ccc(Cl)cc2)CC1 (stereo unspecified)
  .	0.71	0.6	-5.3	15%	1.0	.
- CC(=O)c1ccc(NC(=S)N(C)C2CCN(C)CC2)cc1
  .	0.68	6.0	-3.6	0%	2.4	.
- COc1ccccc1C(=O)NCc1ccccc1
  .	0.71	1.4	-3.4	29%	-3.3	.
- Cc1cccc(-c2nnc(NC(=O)c3ccc(N4C(=O)CCC4=O)cc3)s2)c1
  2.3	0.68	-0.8	-0.2	1%	17*	i
- O=C1NC(C(=O)O)=CC(c2cccc(Cl)c2Cl)N1 (stereo unspecified)
  -3.8	0.7	-1.0	2.5	.	.	i
- CCOC(=O)C1(C)CCN1C(=O)c1ccc(OC)c(C(F)(F)F)c1 (stereo unspecified)
  -1.0	.	.	-0.4	.	.	i
- CC1S/C(=N/N=C/c2cccc([N+](=O)[O-])c2)NC1=O (stereo unspecified)
  6.9	.	.	-6.4	-8%	0.3	i
- COc1ccc(-c2cc3ccccc3n2CC(O)CN2CCN(CCO)CC2)cc1 (stereo unspecified)
  -36	0.76	-0.9	0.2	-1%	3.2	i
- COc1ccc(CCNC(=O)Cn2cccc2C(=O)c2ccccc2)cc1OC
  -2.4	.	3.6	-1.6	-3%	-1.2	i
- CC(=O)Nc1ccc(NC(=O)CN2CCCC(C)C2)c(Cl)c1 (stereo unspecified)
  .	0.72	-0.2	1.0	2%	3.8	.
- COCCCNc1nc(=S)[nH]c2cc(OC)c(OC)cc12
  .	0.68	1.6	1.6	0%	3.4	.
- CCOC(=O)C(Cc1c[nH]c2ccccc12)NC(=O)c1ccco1 (stereo unspecified)
  .	0.74	4.9	0.7	27%	2.1	.
- Nc1cccc(Oc2c(F)c(F)c(Oc3cccc(N)c3)c(F)c2F)c1
  -0.7	0.69	3.5	2.5	-10%	-1.4	i
- O=C(Nc1ccccc1Cl)c1cc(C2CCCCN2S(=O)(=O)c2ccccc2)on1 (stereo unspecified)
  -0.5	.	.	2.9	.	.	i
- COCOc1cccc(CN2CCC(C)(Oc3cccc(C#N)c3)C2)c1 (stereo unspecified)
  -1.9	.	.	-0.4	.	.	i
- CCCCN(Cc1ccccc1)C(=O)CCN1C(=O)C2C3C=CC(C3)C2C1=O (stereo unspecified)
  -2.4	0.71	3.5	-0.2	.	-4.3	i
- CCc1ccc(/C=C2\SC(=S)N(CCCC(=O)Nc3cc(C)on3)C2=O)cc1
  2.3	.	.	3.7	.	.	i
- CC1C(=O)N(Cc2cn(Cc3ccco3)nn2)CCS(=O)(=O)N1Cc1ccc(-c2ccccc2Cl)cc1 (stereo unspecified)
  0.1	.	.	-0.7	.	.	i
- C/C(=N\Nc1cc(C)nc(-c2ccccc2O)n1)c1ccccc1O
  -4.1	.	.	4.8	11%	28*	i
- CCN(CC(=O)Nc1ccc(NC(C)=O)cc1)C(=O)c1ccc2c(c1)OCCO2
  -0.9	0.65	2.4	9.0	11%	.	i
- Cc1cc(S(=O)(=O)Nc2c(C)nc3nc[nH]n3c2=O)ccc1F
  1.7	0.68	1.3	-3.9	.	-4.3	i
- CCCSc1nc2c(c(=O)n1CC)SC(C)C2 (stereo unspecified)
  6.2	0.74	8.4	-0.3	0%	-2.0	i
- Cc1ccc(S(=O)(=O)N2CCC(C(=O)N/N=C/c3cccnc3)CC2)cc1
  .	.	.	-4.1	0%	1.6	.
- COc1ccc([C@H]2CC(=O)C=C(c3ccccc3Oc3ccccc3)C2)cc1
  -2.1	.	0.2	-2.4	.	.	i

# Just E coli growth, for two of the compounds above:
mol	E coli growth
CCN(CC(=O)Nc1ccc(NC(C)=O)cc1)C(=O)c1ccc2c(c1)OCCO2	0.65
Cc1cc(S(=O)(=O)Nc2c(C)nc3nc[nH]n3c2=O)ccc1F	0.68

# More structures
# Results follow in this order: AF4-AF9 inh	E coli growth	UCH37 inh	HNF4A DNA FP	Vif TR-FRET	RanGTP-Impb inh	FGF22 binding
- O=C(O)c1cc(-n2[nH]c(=O)c3ccccc3c2=O)ccc1Cl
  2.0	0.66	-0.4	-1.1	3%	5.8	i
- O=C(NCc1cccc(C(F)(F)F)c1)c1ccc2sc([C@@H]3O[C@H](CO)[C@H](O)[C@H](O)[C@H]3O)nc2c1
  -3.2	.	.	-1.4	.	.	i
- Cc1ccc(NC(=O)c2cccc(NC(=O)/C=C/c3ccco3)c2)cc1C
  .	0.71	3.1	5.8	?	1.0	.
- Cc1occc1C(=O)Nc1cccc(S(=O)(=O)N2CCOCC2)c1
  -0.1	0.67	3.8	-0.2	.	.	i
- COc1ccccc1NC(=O)C(=O)NCCC1CCCCN1S(=O)(=O)c1ccc(F)cc1 (stereo unspecified)
  -0.7	0.73	4.7	2.9	0%	2.9	i
- CCOC(=O)N1CCN(C(c2cc3ccccc3o2)c2nnnn2C(C)(C)C)CC1 (stereo unspecified)
  -1.0	.	.	-1.9	.	.	i
- COCCCNC(=O)/C(C#N)=C/c1c(N2CCN(c3cccc(Cl)c3)CC2)nc2c(C)cccn2c1=O
  6.1	0.68	7.3	0.7	.	6.0	i
- CC(C)(C)c1ccc(C(=O)OCCNC(=O)c2c(Cl)nc3ccccn23)cc1
  .	0.72	0.7	3.6	-3%	3.4	.
- Oc1c(Cl)cc(Cl)cc1CNc1ccccn1
  -4.5	0.62	2.9	0.9	.	-2.5	i
- O=C1CCc2cc(S(=O)(=O)Nc3cccc(F)c3)cc3c2N1CC3
  -21	0.66	1.9	1.4	-8%	-5.1	i
- COc1cccc(NS(=O)(=O)c2ccc(NC(C)=O)cc2)c1
  .	0.7	0.3	-1.9	3%	-2.9	.
- O=C(NCc1ccccc1Cl)c1cc(C(=O)C2CC2)c[nH]1
  0.1	0.7	2.4	1.9	.	3.1	i
- Cc1ccc2cc3c(NC(=O)c4ccco4)nn(C)c3nc2c1
  .	.	.	-1.7	0%	23*	.
- CC(C)N1CCC(NC(=O)Nc2ccccc2)CC1
  -1.1	0.68	1.1	0.1	13%	1.5	i
- Nc1ccc(-n2nncc2-c2ccco2)cc1
  .	0.7	5.6	-6.0	18%	-2.2	.
- O=C(O)CCCc1ccc2ccc3cccc4ccc1c2c34
  -0.3	0.7	-103	-3.3	-8%	4.3	i
- O=[N+]([O-])c1cc(Cl)ccc1Oc1ccc(-c2nnco2)cc1
  0.2	0.7	1.4	-1.2	-5%	-1.4	i
- O=C(c1ccncc1)N1CCN(S(=O)(=O)c2ccc(F)cc2)CC1
  -0.9	0.69	-2.6	14	-4%	-1.2	i
- Cc1ccc(OCCCC(=O)Nc2ccc(N3CCOCC3)cc2)cc1
  .	0.68	5.5	-0.2	15%	-2.9	.
- Cn1c(Cn2nnc3ccccc32)nnc1SCC(=O)Nc1ccc2c(c1)OCO2
  -44	0.7	-0.7	-0.1	-4%	-0.6	i
- CCS(=O)(=O)NCC(c1ccco1)N1CCN(c2ccc(F)cc2)CC1 (stereo unspecified)
  .	.	3.1	-1.4	0%	4.2	.
- CCOc1ccc(C(=O)NCC(=O)OCC(=O)N(C)CC(=O)Nc2ccccc2CC)cc1OCC
  -5.0	0.65	0.2	-0.1	.	.	i
- O=C(NCCc1c[nH]c2ccccc12)C(F)(F)F
  .	0.77	4.1	1.7	0%	-1.1	.
- COc1ccc(N2CC(C)(C)[C@H](CC(=O)Nc3ccc(Br)cc3)C2=O)cc1
  -4.3	.	.	-1.4	.	.	i
- CN1CCC(N(C)C(=O)NC2CCCCC2)CC1
  -1.8	0.7	-0.3	2.5	12%	4.1	i
- Cc1ccccc1-c1csc(C(C)(O)c2cccnc2)n1 (stereo unspecified)
  -4.0	.	.	5.9	.	.	i
- O=C(NCc1ccccc1CN1CCCC1)C1CCN(S(=O)(=O)c2ccc(F)c(F)c2)CC1
  2.7	0.71	1.3	3.3	.	.	i
- O=C1Nc2cc3c(cc2Sc2ccccc21)OCCO3
  .	0.67	-0.8	0.9	-11%	2.4	.
- NS(=O)(=O)c1cccc(NC(=O)COC(=O)Cc2ccc(S(=O)(=O)N3CCOCC3)s2)c1
  0.4	0.7	0.7	1.8	.	.	i
- CCc1ccc(NC(=O)c2cc(C)on2)cc1
  -0.2	0.63	3.0	1.5	-1%	-2.1	i
- COC(=O)Cn1c(=NC(=O)c2sc3ccccc3c2Cl)sc2cc(S(N)(=O)=O)ccc21
  -5.1	.	.	-1.6	-19%	-1.8	i
